YopH inh – YopH tyrosine phosphatase inhibitors, primary screen, biochemical, fluorescence Ex485/Em525 | 0.16% of 140,000 active | YopH tyrosine phosphatase [Yersinia enterocolitica] | AID 898, 2007 | inhibition, %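 (about 10 µM by stock and volumes)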;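 active = inhibition of 50% or more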;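 note: controls were vehicle for no effect and minimum signal wells for full effect; inactives centre near -20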
RecA splice inh – Mtb RecA intein splicing inhibitors, primary screen, biochemical, fluorescence, HTS; cell-free RecA intein splicing; Protein RecA (Mycobacterium tuberculosis (strain ATCC 25618 / H37Rv)), P9WHJ3; 0.75% of 290,000 active; inhibition, %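 (about 9 µM by stock and volumes)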; in the data active = inhibition above about 30%; inconclusive = no clear call, values can overlap the other calls;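 note: 0% = vehicle wells and 100% = reference inhibitor control wells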
Target sequence (P9WHJ3 whole entry, looked up, canonical isoform): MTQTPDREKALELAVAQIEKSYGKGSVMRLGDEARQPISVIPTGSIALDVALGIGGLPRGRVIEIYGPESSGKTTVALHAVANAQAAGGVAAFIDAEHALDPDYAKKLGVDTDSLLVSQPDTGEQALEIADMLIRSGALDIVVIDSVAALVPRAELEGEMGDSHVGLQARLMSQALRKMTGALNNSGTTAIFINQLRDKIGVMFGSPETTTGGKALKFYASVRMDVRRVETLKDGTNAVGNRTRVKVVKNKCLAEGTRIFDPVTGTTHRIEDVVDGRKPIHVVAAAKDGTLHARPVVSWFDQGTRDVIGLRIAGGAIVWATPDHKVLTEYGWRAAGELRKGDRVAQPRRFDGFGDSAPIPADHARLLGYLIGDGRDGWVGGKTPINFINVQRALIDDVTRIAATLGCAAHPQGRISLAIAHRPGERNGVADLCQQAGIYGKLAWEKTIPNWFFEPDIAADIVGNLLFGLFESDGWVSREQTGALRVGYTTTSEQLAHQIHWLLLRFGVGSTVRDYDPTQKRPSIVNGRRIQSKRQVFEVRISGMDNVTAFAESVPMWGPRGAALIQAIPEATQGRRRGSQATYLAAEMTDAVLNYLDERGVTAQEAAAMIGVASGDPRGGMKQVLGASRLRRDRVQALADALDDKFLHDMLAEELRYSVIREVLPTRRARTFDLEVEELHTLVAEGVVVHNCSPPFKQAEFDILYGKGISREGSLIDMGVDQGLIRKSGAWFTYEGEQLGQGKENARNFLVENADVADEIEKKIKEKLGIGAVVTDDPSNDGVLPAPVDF
Arbovirus anti – antivirals against arbovirus infection, primary screen, cell-based, full library, 10K replicate subset; arbovirus infection cell-based antiviral screen; inhibition, % at 10 µM; 0.37% of 200,000 active;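 active = inhibition from about 30%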;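 note: bluetongue infection of BSR cells; cell survival read as ATP light after 72 h; 0% = infected wells without compound and 100% = uninfected wells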
Mtb betalactam – beta-lactam sensitization of Mtb H37Rv, H37Rv; 0.27% of 330,000 active; M. tuberculosis H37Rv growth with meropenem, percent inhibition; hits of this screen are not shown here; AID 434955, 2010; inhibition, % at 25 µM;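 active = about 74% or more and at least 40 points above the plate without the antibiotic, then above 30% in a dose series; inconclusive = first-round hits that could not be retested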;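 note: growth measured after seven days incubation then overnight dye step; 0% = bacteria only wells and 100% = bacteria with antibiotic; twin plates without the antibiotic show which effects depend on it; some results filed as inactive read as strong as hits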
Mtb H37Rv – M. tuberculosis H37Rv growth inhibitors, H37Rv strain (AID 1626); M. tuberculosis H37Rv growth inhibition; higher % means a stronger effect; inhibition, % at 10 µM, or IC50 in µM where a hit was titrated; 0.95% of 220,000 active;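 active = confirmed in a dose series; inconclusive = inhibition above 80% but not taken into the dose series; inactive = below 80% or under 30% at every dose of the series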;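 note: bacteria incubated seven days before Alamar blue readout; 0% = bacteria only wells and 100% = bacteria with antibiotic wells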
Arbovirus anti repeat – further read-out of Arbovirus anti, marked with its call; inhibition, %; measured here: 10K subset replicate screen; many hits read low in the repeat;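 first of two repeat runs on a subset; 0% = infected and 100% = uninfected wells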
Numbers without * were called inactive; ? = inconclusive; · = no result given. A portion of the library. The share of hits here may be higher or lower than overall.

SMILES	YopH inh	RecA splice inh	Arbovirus anti	Mtb betalactam	Mtb H37Rv	others
COc1cccc(NC(=S)NC(=O)/C=C/c2ccco2)c1	·	2.8	·	2.4	·
O=C(c1cc(Br)c(Br)s1)N1CCN(C/C=C/c2ccccc2)CC1	-12.5	1.4	13.1	-1.3	-11.4%
O=[N+]([O-])c1ccccc1S(=O)(=O)Nc1ccc(-c2ccc(N3CCOCC3)nn2)cc1	·	1.0	·	-13.2	·
COc1ccc(CNC(=O)CCCn2ncn3c(cc4occc43)c2=O)cc1	·	0.3	·	0.4	·
O=C(N/C(=C/c1cccc([N+](=O)[O-])c1)C(=O)N1CCOCC1)c1ccccc1Br	·	-2.3	·	1.2	·
COc1ccc(/C=N/NC(=O)c2ccccc2O)cc1Cn1cc([N+](=O)[O-])cn1	·	3.9	·	-2.1	-1.5%
CCCN(CCC)C(=O)c1ccc2c(c1)OCO2	-9.2	-1.5	2.2	2.0	-6.7%
COc1cccc2sc(N(CCN(C)C)C(=O)/C=C/c3cccs3)nc12	·	3.9	-18.1	-5.2	4.7%
CCOC(=O)c1cc(-c2ccccc2)n(CCC(=O)N2CCN(c3ccc(OC)cc3)CC2)c1C	-17.6	5.0	-5.8	10.1	7.2%
CCCCN(C)C(=O)C1CCN(Cc2ccccn2)CC1	-12.4	·	-1.5	-6.2	-3.2%
Cc1nc2ccc(S(=O)(=O)N(C)CC(=O)NCc3ccc(N(C)C)cc3)cc2s1	·	-5.3	·	0.7	·
COc1ccc(/C=C/C(=O)c2ccc(OC)cc2OC)cc1	·	4.1	12.2	68.0	2.7%
CC(c1n[nH]c(=S)n1-c1ccccc1)N1CCCCC1 (stereo not given)	·	-1.6	3.0	-9.0	-6.6%
COc1ccc(C)cc1NC(=O)C1CCN(S(=O)(=O)c2ccc3c(c2)C(C)(C)C(=O)N3C)CC1	·	0.2	·	0.4	·
CCCOc1ccc(OCCCCNC(C)CC)cc1 (stereo not given)	-8.0	1.1	-18.0	-6.2	4.2%
O=C(CN1CCN(Cc2ccccc2)CC1)NCC1COc2ccccc2O1 (stereo not given)	-31.7	2.2	-4.0	5.0	0.5%	Arbovirus anti repeat=1.1
Clc1ccccc1C1=CC(c2ccco2)n2nnnc2N1 (stereo not given)	·	1.1	-1.6	-1.4	5.3%
CC1Sc2ccc(S(=O)(=O)CCC(=O)N3CCc4ccccc43)cc2NC1=O (stereo not given)	·	2.3	·	-1.4	·
COc1cccc(NC(=O)NC2(C(F)(F)F)Oc3ccccc3O2)c1	3.7	-3.2	-14.0	-2.5	-5.0%
CCOC(=O)c1cnc2c(Cl)cc(Cl)cc2c1NCCCN1CCOCC1	·	-3.9	·	4.3	·
Cn1c(=O)[nH]c(=O)c2c1nc(OC(=O)c1ccccc1)n2CC(O)COc1ccccc1 (stereo not given)	-28.8	1.1	-1.1	-4.1	-0.3%
CCOC(=O)c1cccc(NC(=O)CCn2c(=O)oc3ccccc32)c1	·	-1.2	·	0.3	·
Cc1cccc(C)c1N1CCN(c2n[nH]c(N)n2)CC1	·	-3.4	-6.5	0.7	4.8%
CCn1cc(C(=O)NCC2CCCO2)c(=O)c2cc(S(=O)(=O)N3CCCCCC3)ccc21 (stereo not given)	-28.8	0.7	-2.5	-17.9	-8.8%
O=S(=O)(Nc1ccccn1)c1ccc(Cl)cc1	-14.4	·	8.6	3.6	-10.1%

Structures shown so far with a Cl atom:
SMILES	YopH inh	RecA splice inh	Arbovirus anti	Mtb betalactam	Mtb H37Rv	others
Clc1ccccc1C1=CC(c2ccco2)n2nnnc2N1 (stereo not given)	·	1.1	-1.6	-1.4	5.3%
CCOC(=O)c1cnc2c(Cl)cc(Cl)cc2c1NCCCN1CCOCC1	·	-3.9	·	4.3	·
O=S(=O)(Nc1ccccn1)c1ccc(Cl)cc1	-14.4	·	8.6	3.6	-10.1%

The main list resumes with the two entries that preceded the break.
SMILES	YopH inh	RecA splice inh	Arbovirus anti	Mtb betalactam	Mtb H37Rv	others
CCn1cc(C(=O)NCC2CCCO2)c(=O)c2cc(S(=O)(=O)N3CCCCCC3)ccc21 (stereo not given)	-28.8	0.7	-2.5	-17.9	-8.8%
O=S(=O)(Nc1ccccn1)c1ccc(Cl)cc1	-14.4	·	8.6	3.6	-10.1%
COC(=O)CN(C#N)c1nc(NC(C)C)nc(NC(C)C)n1	·	10.6	1.8	23.1	-0.5%
Nc1c2c(nn1-c1ccc(F)cc1)CSC2	·	-3.6	·	2.0	·
COCC1=C(C(=O)OC(C)OC(=O)OC(C)C)N2C(=O)[C@@H](NC(=O)/C(=N\OC)c3csc(N)n3)[C@H]2SC1 (stereo not given in full)	·	0.6	·	-1.2	-4.2%
Cn1c2ccccc2n2c(=O)c(Cl)c(-c3ccccc3)c(C#N)c12	-2.1	-6.4	-11.5	-2.2	-5.5%
O=C(O)C1CCCN(S(=O)(=O)c2ccccc2[N+](=O)[O-])C1 (stereo not given)	·	0.3	·	-7.8	·
CCCN1CCN(C(=O)c2oc3ccccc3c2NC(=O)COc2ccc(OC)cc2)CC1	·	-2.3	·	4.3	·
COc1ccc(C(=O)Nc2ccc3c(c2)Cc2ccccc2-3)cc1	-23.5	-2.1	-2.1	3.5	-4.6%
COc1ccc(CC(=O)N/N=C(\C)CC(=O)Nc2ccc(N(C)C)cc2)cc1OC	·	-5.7	·	7.3	·
COc1cc(NC(=O)C2C3C=CC(C3)C2C(=O)O)c(OC)cc1Cl (stereo not given)	2.6	-2.4	1.0	-3.4	-3.4%	Arbovirus anti repeat=0.7
Cc1ccc(S(=O)(=O)N2CC=C(C(=O)NC3CCCC3)CC2)cc1	·	0.2	·	0.8	·
O=C(COC(=O)c1ccc(S(=O)(=O)N2CCOCC2)cc1)NC1CCCC1	-40.5	-0.8	7.1	-6.0	-0.5%
Cc1ccc2nc(N(CCN(C)C)C(=O)c3ccc4c(c3)OCCO4)sc2c1	·	2.2	·	0.8	·
Cc1oc(-c2ccc3c(c2)OCCO3)cc1C(=O)NC(CCC(=O)O)C(=O)O (stereo not given)	-47.9	0.6	8.2	-3.9	-5.5%
CCCc1ccc(Oc2cn[nH]c2-c2ccc(O)c(C)c2O)cc1	-33.2	19.2	-43.3	-3.1	6.7%
COc1cccc(C(=O)Nc2cccc(C(=O)NC3=NN(c4c(Cl)cc(Cl)cc4Cl)C(=O)C3)c2)c1	-3.5	·	34.4*	-5.2	-10.9%
CCC(C)C(NC(N)=O)C(=O)Nc1ccc(OCc2ccccc2)cc1 (stereo not given)	·	0.3	·	·	-1.4%
Cc1n[nH]c(=O)nc1NCCc1ccccc1	-9.0	0.9	3.5	0.5	-7.2%
COc1cc(NS(=O)(=O)c2ccc(NC(=O)c3ccc(C)o3)cc2)nc(OC)n1	-20.3	-0.8	7.3	-13.2	2.5%
CCCCC(=O)Nc1ccc(C(=O)N2CCCC(C(=O)OCC)C2)cc1 (stereo not given)	-6.6	0.1	10.9	-0.3	8.3%
O=[N+]([O-])c1ccc(/C=[N+](\[O-])CCO)o1	·	-454.8	·	79.0	12.9%
COc1cc(C(=O)Nc2cccc(-c3nncn3C)c2)cc(OC)c1OC	-29.0	0.6	0.1	-6.9	-0.4%	Arbovirus anti repeat=3.9
Cc1cccc2cc(CN(CCCO)C(=O)Nc3ccc(Cl)cc3)c(=O)[nH]c12	-35.7	·	2.4	·	6.1%
C=CCN(C(=O)Nc1ccc(Cl)cc1)C1CC(=O)N(c2ccc(OC)cc2)C1=O (stereo not given)	-38.0	·	10.4	-2.5	·
CSC1=C(C#N)C(C)C2=C(CC(C)(C)CC2=O)N1 (stereo not given)	-6.3	-8.4	4.7	-7.8	7.4%
Cc1nnc(N2CCC(C(=O)NC3CCC(C)CC3)CC2)c2nn(-c3ccc(Cl)cc3)c(C)c12 (stereo not given)	·	-0.2	·	2.4	·

Structures above with bromine:
SMILES	YopH inh	RecA splice inh	Arbovirus anti	Mtb betalactam	Mtb H37Rv	others
O=C(c1cc(Br)c(Br)s1)N1CCN(C/C=C/c2ccccc2)CC1	-12.5	1.4	13.1	-1.3	-11.4%
O=C(N/C(=C/c1cccc([N+](=O)[O-])c1)C(=O)N1CCOCC1)c1ccccc1Br	·	-2.3	·	1.2	·

Next structures
SMILES	YopH inh	RecA splice inh	Arbovirus anti	Mtb betalactam	Mtb H37Rv	others
Nc1nnc(SCC(=O)Nc2nccs2)s1	·	0.1	·	-11.2	·
COc1cccc(CN2CCN(C(=O)c3ccco3)CC2)c1	·	-3.5	·	-2.6	·
COc1cccc(-n2nc(C(C)=O)c(=O)[nH]c2=O)c1	·	-0.7	16.2	-0.3	-9.3%
CSc1nnc(CCNC(=O)OC(C)(C)C)o1	·	-0.2	·	6.5	-2.8%
COc1ccc(C2CC(c3ccccc3OC(C)=O)=NN2C(C)=O)cc1 (stereo not given)	·	1.4	·	3.7	-1.7%
Cc1ccc(C)c(NS(=O)(=O)c2ccc3c(c2)NC(=O)CO3)c1	·	-1.2	·	-12.1	·
CCOc1ccc2nc(SCC(=O)NCc3ccc(OC)c(OC)c3)[nH]c2c1	·	·	17.9	-0.2	-2.5%
Cc1c(C(=O)N2CCN(Cc3ccc4c(c3)OCO4)CC2)sc2ncnc(N3CCN(c4ccccc4)CC3)c12	·	9.7	·	95.7	·
CC1=NOC(=O)/C1=C/c1ccc(O)c(Cl)c1	·	-1.3	·	2.1	·
COc1ccc(CCNC(=O)C2CCCN(S(=O)(=O)N3CCCCCC3)C2)cc1OC (stereo not given)	·	-0.5	·	-4.8	·
O=C1/C(=C\c2ccc(Br)o2)Cc2ccccc21	-45.4	-8.8	-3.0	1.2	0.0%
Cc1[nH]c2ccccc2c1CCNC(=O)c1ccc2nccnc2c1	·	0.3	·	1.3	·
Oc1ccc(Nc2ncnc3scc(-c4ccccc4)c23)cc1	-30.7	0.2	-10.2	-2.3	8.9%
Cc1ccccc1OCC(=O)NNC=O	·	0.8	2.3	0.0	-0.9%
O=C(CCSc1nc(-c2ccco2)cc(C(F)(F)F)n1)N1CCCc2ccccc21	-14.7	12.9	7.6	-3.1	7.6%
O=C(N/C(=C\c1ccc(Br)cc1)C(=O)N1CCOCC1)c1ccccc1Cl	·	1.2	·	-7.0	·
C=CCNC(=S)NCCCCC1NC(=S)N(CC=C)C1=O (stereo not given)	0.0	0.7	-6.8	-1.7	2.7%
CCN(CC)S(=O)(=O)c1ccc(Cl)c(NC(=O)COc2ccc3c(C)cc(=O)oc3c2)c1	-34.8	-1.1	-7.7	?	6.6%
CCN1CCN(c2ccc(S(=O)(=O)N3CCOCC3)cc2NC(=O)c2ccc(Cl)cc2Cl)CC1	·	-0.5	·	-1.8	·
COC(=O)[C@H](CC(C)C)NC(=O)Nc1ccc2c(c1)OCCO2	-48.4	0.0	2.5	?	-5.3%
COc1cccc(C(=O)NNC(=O)Cc2cccs2)c1	·	4.9	-0.1	-0.2	-5.8%

An excerpt from further up, for reference:
SMILES	YopH inh	RecA splice inh	Arbovirus anti	Mtb betalactam	Mtb H37Rv	others
CCN1CCN(c2ccc(S(=O)(=O)N3CCOCC3)cc2NC(=O)c2ccc(Cl)cc2Cl)CC1	·	-0.5	·	-1.8	·
COC(=O)[C@H](CC(C)C)NC(=O)Nc1ccc2c(c1)OCCO2	-48.4	0.0	2.5	?	-5.3%
COc1cccc(C(=O)NNC(=O)Cc2cccs2)c1	·	4.9	-0.1	-0.2	-5.8%

Assay outcomes deposited in PubChem by several laboratories.
